Hsc70 ATP site: Hsc70 inhibitors, probe displacement, primary screen, biochemical, fluorescence polarization (AID 568); Hsc70 fluorescence polarization, probe displacement; higher % means a stronger effect; strong numbers were not always called active; displacement, % at 20 µM, or IC50 in µM where a hit was titrated; 83,000 tested, under 10 active;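 active means displacement above 50% without optical interference and an IC50 on retest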;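 further: ATPase domain with a fluorescein-tagged ATP probe; 0% = vehicle and 100% = excess ADP; read after one hour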
MT1-MMP promoter: inhibitors of MT1-MMP promoter transcription, cell-based, luciferase reporter, luminescence (AID 618). MT1-MMP promoter luciferase reporter cells, luminescence. calls from a first round at 10 µM; hits with a dose series show EC50 in µM. actives 0.62% (n = 87,000);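 active means over half of the reporter light lost at 10 µM or EC50 under 50 µM; inactive means the rest and hits that failed the dose series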;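 further: actives suppress MT1-MMP promoter-driven transcription so potencies describe inhibitors; HT1080 fibrosarcoma cells; overnight exposure; toxic or luciferase-blocking compounds were not removed from the actives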
WNV protease inh: inhibitors of WNV NS2B-NS3 protease, primary screen, biochemical, fluorogenic substrate. actives 0.18% (n = 65,000). z-score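 (tested at a level between 10 and 100 µM)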. fluorogenic substrate Ex360/Em465; hits give low values. AID 577, 2007;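 active means z-score at -3 or under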;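 further: score is relative to mean and spread of the compound wells of a plate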
Target sequence (P06935 1371-1501 limits assumed): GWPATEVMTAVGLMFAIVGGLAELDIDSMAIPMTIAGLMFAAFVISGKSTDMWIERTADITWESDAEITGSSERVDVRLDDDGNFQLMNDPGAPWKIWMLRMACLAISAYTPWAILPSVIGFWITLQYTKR
Target sequence (P06935 1502-1679 limits assumed): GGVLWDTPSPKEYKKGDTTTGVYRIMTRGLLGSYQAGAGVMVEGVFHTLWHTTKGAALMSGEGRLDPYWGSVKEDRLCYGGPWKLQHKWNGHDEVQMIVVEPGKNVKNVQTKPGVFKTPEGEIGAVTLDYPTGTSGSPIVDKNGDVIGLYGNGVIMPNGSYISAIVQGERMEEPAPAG
The depositor's hits bear a star; i = inactive; . = not tested or not shown.

SMILES	Hsc70 ATP site	MT1-MMP promoter	WNV protease inh
O=C(NCc1ccco1)C1CCCN(S(=O)(=O)c2ccccc2)C1 (centres undefined)	0.7%	i	.
O=C(CSCc1ccccc1)N1CCN(c2cccc(C(F)(F)F)c2)CC1	2.6%	i	.
COc1ccc(NC(=O)C2CCN(c3cc(-c4ccccc4)nc4ncnn34)CC2)cc1OC	9.0%	i	1
O=c1c(-c2ccc3c(c2)OCCO3)coc2cc(O)cc(O)c12	4.4%	i	-0.02
COc1cccc(C2=NOC(C(=O)N3CCN(Cc4ccccc4)CC3)C2)c1OC (centres undefined)	6.8%	i	0.29
CCCOCCOC(=O)c1[nH]c2c(c1C)C(=O)CC(c1cc(OC)ccc1OC)C2 (centres undefined)	-0.3%	i	0.47
Cc1ccc(S(=O)(=O)N2CCN(C(C)C(=O)N3CCCc4ccccc43)CC2)cc1 (centres undefined)	1.6%	i	.
COc1ccccc1-c1nnc2sc(-c3cnccn3)nn12	-6.6%	i	-0.26
O=C(Nc1ccc2c(c1)OCO2)N1CCN(C(=O)C2CCCO2)CC1 (centres undefined)	-1.1%	i	1.5
Cn1c(-c2ccc(F)cc2)cnc1NCc1cccc(F)c1	-3.0%	i	.
COc1cc(C)nc(N2CCCC(C(=O)NC3CCC(C)CC3)C2)n1 (centres undefined)	-5.6%	i	-0.03
CS(=O)CCC(NS(=O)(=O)c1ccccc1)C(=O)O (centres undefined)	-0.3%	i	-2
CCc1ccc(-c2nc(CN3CCC(C(=O)N4CCN(c5ccccc5)CC4)CC3)c(C)o2)cc1	-5.4%	i	0.61
N#CC1=C(C2CC2)CC(c2ccccc2)C(C#N)=C1N (centres undefined)	-5.1%	i	-0.7
COc1ccc(CNc2nc3nc(C)cc(C)n3n2)cc1	1.6%	i	.
COc1ccc(C2CC(=O)C(C=NCCN3CCNCC3)=C(O)C2)cc1OC (centres undefined)	0.4%	i	-0.28
CCCP(=O)(CC(=O)N(CC)CC)c1ccccc1 (centres undefined)	4.1%	i	0.24
O=S(=O)(Cc1ccccc1Cl)N1CCCCC1	4.1%	i	0.67
COc1cccc(NC(=O)c2cc(C(=O)Nc3cccc(OC)c3)n(C)n2)c1	-14%	i	1.3
CCCCC(=O)Nc1sc(C(=O)N(CC)CC)c(C)c1C(=O)OC	-3.5%	i	.
C=CCOc1ccc(/C(O)=C2/C(=O)C(=O)N(CCCN3CCOCC3)C2c2ccccc2)cc1 (centres undefined)	-4.3%	i	-0.79
CCCCS(=O)(=O)NC1=NCN(C2CCN(Cc3ccccc3)CC2)CN1	5.6%	i	-0.95
O=C(NCCC1=CCCCC1)C1CCCN(c2nc3ccccc3o2)C1 (centres undefined)	1.2%	i	0.02
Cc1nn(-c2ccccc2)c2sc(C(=O)N(Cc3ccco3)C(C)C(=O)NC(C)(C)C)cc12 (centres undefined)	-1.7%	i	2.5
O=C1CC(c2ccc(Cl)cc2)CC(O)=C1C=NCCN1CCNCC1 (centres undefined)	1.3%	i	.

5 successive records already listed:
SMILES	Hsc70 ATP site	MT1-MMP promoter	WNV protease inh
CS(=O)CCC(NS(=O)(=O)c1ccccc1)C(=O)O (centres undefined)	-0.3%	i	-2
CCc1ccc(-c2nc(CN3CCC(C(=O)N4CCN(c5ccccc5)CC4)CC3)c(C)o2)cc1	-5.4%	i	0.61
N#CC1=C(C2CC2)CC(c2ccccc2)C(C#N)=C1N (centres undefined)	-5.1%	i	-0.7
COc1ccc(CNc2nc3nc(C)cc(C)n3n2)cc1	1.6%	i	.
COc1ccc(C2CC(=O)C(C=NCCN3CCNCC3)=C(O)C2)cc1OC (centres undefined)	0.4%	i	-0.28

Next part
SMILES	Hsc70 ATP site	MT1-MMP promoter	WNV protease inh
CCn1c2ccccc2c2nnc(SCC(=O)NC(C(=O)OC)C(C)C)nc21 (centres undefined)	-0.9%	i	-1.2
Cc1nn(Cc2ccc([N+](=O)[O-])cc2)c(=O)n1N(C)c1ncc(C(F)(F)F)cc1Cl	-7.1%	i	.
Cc1ccsc1C1NC(=O)c2c(sc3c2CCCC3)N1 (centres undefined)	-13%	i	0.09
CCN(CC)C(=S)Sc1c(-c2ccccc2)c2cc(Cl)ccc2[nH]c1=O	3.5%	i	.
CCCN(CCC)S(=O)(=O)c1ccc(C(=O)Nc2nnc(-c3cccc(OC)c3)o2)cc1	-4.1%	i	0.55
Nc1c(C(=O)NCc2ccco2)c2nc3ccccc3nc2n1CCc1ccc(F)cc1	-2.2%	i	.
Cc1nc2nc(C)c(CCC(=O)NCc3ccc4c(c3)OCO4)c(C)n2n1	-9.2%	i	0.59
O=C(COc1ncnc2ccccc12)N1CCOCC1	-6.2%	i	-0.04
COc1ccc(C2CC(=O)c3cnc(Nc4cc(C)cc(C)c4)nc3C2)cc1 (centres undefined)	-4.1%	i	.
Cc1ccc(NC(=O)C2CCCN(S(=O)(=O)c3c(C)noc3C)C2)c(C)c1 (centres undefined)	0.8%	i	-1
Cc1ccc2cc(CCNC(=O)C3CCCC3)c(=O)[nH]c2c1	-3.7%	i	-0.74
Cc1ccc2[nH]cc(C(=O)NCc3cccs3)c(=O)c2c1	5.0%	i	.
O=C1CCC(C(=O)NC2(C(=O)NC3CCCCC3)CCCCC2)N1 (centres undefined)	0.1%	i	1.5
CCN(CC)S(=O)(=O)N1CCC(C(=O)NCc2ccc(C)cc2)CC1	-7.2%	i	-1
CN1CCN2c3ccccc3Cc3ccccc3C2C1 (centres undefined)	2.0%	i	0.06
O=C(CN1C(=O)COc2ccccc21)N(Cc1ccccc1)Cc1ccccn1	-6.2%	i	-0.78
CC(C)OC(=O)CC12CN3CN(C1)CC(CC(=O)OC(C)C)(C3)C2=O	-7.6%	i	.
C=CCn1c(SCC(=O)NCCc2ccccc2)nnc1C(C)NC(=O)c1cccs1 (centres undefined)	-3.7%	i	.
Brc1ccc(-c2nnc3sc(CN4CCC5(CC4)OCCO5)cn23)cc1	0.7%	i	-1.8
O=C(c1sc2ccccc2c1Cl)N(Cc1cccs1)C1CCS(=O)(=O)C1 (centres undefined)	2.3%	i	-0.5
COC(=O)c1[nH]c2cc(OC)ccc2c1NC(=O)CCN1CCN(c2cccc(C)c2C)CC1	0.1%	i	-0.48
COc1ccc(-c2cc(C(F)(F)F)nc(SCC(=O)NCCN3CCOCC3)n2)cc1OC	-0.8%	i	.
COc1nn(CC(=O)N2N=C(C(F)F)CC2(O)C(F)F)cc1[N+](=O)[O-] (centres undefined)	3.0%	i	.
CCn1c(SCC(=O)N2CCOCC2)nc2oc3c(Cl)cc(Cl)cc3c(=O)c2c1=O	-17%	i	-1.6
COc1ccc(-c2cn3c(C)c(C(=O)NC(C)C)sc3n2)cc1	0.8%	i	-0.2

Continuation.
SMILES	Hsc70 ATP site	MT1-MMP promoter	WNV protease inh
Cc1ccc(CNCC2CCCO2)o1 (centres undefined)	-0.8%	i	.
CN(Cc1ccccc1)C(=O)NC1CCCCC1	-2.2%	i	.
OC1CN=C2CCCc3c2n(c2ccc(Cl)cc32)C1 (centres undefined)	0.5%	i	-0.1
NCCOc1ccccc1-c1ccccc1	3.5%	i	0.27
CCCC(c1nnnn1Cc1ccc(OC)cc1)N1CCC(C(N)=O)CC1 (centres undefined)	1.0%	i	0.12
CC(C)(C)c1nc(CN2CCCCC2)cc(CN2CCCCC2)c1O	-5.3%	i	0.48
CC1CCN(C(c2ccc(N(C)C)cc2)c2nnnn2Cc2ccc(F)cc2)CC1 (centres undefined)	-3.1%	i	0.79
COC(=O)c1ccc(C(=O)OC)c(NC2=NS(=O)(=O)c3ccccc32)c1	1.4%	i	-0.41
CC(C)OCCCNC(=O)Cn1ncc2c(=O)oc3ccccc3c21	0.0%	i	-1.1
O=S(=O)(c1cccc2nsnc12)N1CCc2ccccc21	-5.0%	i	2
c1csc(C2C3=C(Nc4ncnn42)c2ccccc2OC3)c1 (centres undefined)	12%	i	0.2
Cc1cc(C)nc(-n2nc(C)cc2NC(=O)c2cc(=O)c3ccccc3o2)n1	3.6%	i	-0.58
CCN(CC)S(=O)(=O)c1ccc(NC2=NS(=O)(=O)c3ccccc32)cc1	5.5%	i	.
CCOC(=O)c1oc2ccc(S(=O)(=O)N3CCC(C)CC3)cc2c1C	1.6%	i	-0.71
CC1CCN(CC(=O)Nc2ccccc2-c2ccccc2)CC1	-2.7%	i	.
O=S1(=O)CCC(SCc2nc3sccn3c2Br)C1 (centres undefined)	-4.5%	i	-1.2
O=C1c2oc3ccccc3c(=O)c2C(c2ccc(Cl)cc2)N1c1ncccn1 (centres undefined)	2.8%	i	-0.4
Cc1cc(S(=O)(=O)NCc2ccc(S(N)(=O)=O)cc2)c(C)s1	-1.9%	i	0.05
O=S(=O)(Nc1nc2ccccc2nc1N1CCN(c2ccccn2)CC1)c1ccc(Cl)cc1	35%	i	2
COc1ccc(NC(=O)CSc2nnc(C(C)C)n2N)cc1	-2.0%	i	0.82
COC(=O)c1ccc2c(=O)n(NC(C)=O)c(=S)[nH]c2c1	0.1%	i	0.05
Cc1cc(C)nc(SCc2nc(N)nc(-c3ccccc3O)n2)n1	-8.3%	i	0.32
Cn1cccc1/C=N/NC(=O)c1cccnc1	0.1%	i	.
CCOc1ccc(NC(=O)N[C@@H](CCSC)C(=O)OC)cc1	8.4%	i	.
CCCN1C2CCCC1CC(NC(=O)c1ccccc1F)C2 (centres undefined)	-3.8%	i	-0.56

A draw from above in order of number of heavy atoms, ascending:
SMILES	Hsc70 ATP site	MT1-MMP promoter	WNV protease inh
COC(=O)c1ccc2c(=O)n(NC(C)=O)c(=S)[nH]c2c1	0.1%	i	0.05
Cc1cc(C)nc(SCc2nc(N)nc(-c3ccccc3O)n2)n1	-8.3%	i	0.32
CC(C)(C)c1nc(CN2CCCCC2)cc(CN2CCCCC2)c1O	-5.3%	i	0.48
CCN(CC)S(=O)(=O)c1ccc(NC2=NS(=O)(=O)c3ccccc32)cc1	5.5%	i	.
Cc1cc(C)nc(-n2nc(C)cc2NC(=O)c2cc(=O)c3ccccc3o2)n1	3.6%	i	-0.58

More structures follow:
SMILES	Hsc70 ATP site	MT1-MMP promoter	WNV protease inh
O=C(CSc1ncc(-c2ccccc2)[nH]1)Nc1ccccc1	0.4%	i	.
CCCc1cc(=O)n2[nH]c(-c3ccc(C)cc3)cc2n1	-7.0%	i	-2.3
O=C(c1ccccc1)N(Cc1ccc(F)cc1)C1CCS(=O)(=O)C1 (centres undefined)	7.0%	i	0.36
CCOCCn1c(CN2CCN(c3ccc(F)cc3)CC2)nc2c1c(=O)n(C)c(=O)n2C	-0.7%	i	0.61
CCN(CC(=O)NCc1ccc(F)cc1)Cc1nc2ccccc2c(=O)[nH]1	-1.7%	i	1.1
CCCC(=O)N(c1ccc(OCC)cc1)C1C=CS(=O)(=O)C1 (centres undefined)	-5.1%	i	-0.78
COCCNC(=O)C1CCN(S(=O)(=O)N2CCC3(CC2)OCCO3)CC1	9.2%	i	0.36
CCc1ccccc1-n1c(SCC(=O)Nc2ccc3c(c2)OCCO3)nc2[nH]ncc2c1=O	6.9%	i	-0.01
CNS(=O)(=O)c1cc(C(=O)NCc2ccco2)ccc1Cl	-0.2%	i	.
CC1CCN(S(=O)(=O)c2ccc(Cl)cc2)CC1	-0.6%	i	1.1
COc1cccc(-c2nnc3n2N=C(c2cc(OC)ccc2OC)CS3)c1	-2.1%	i	.
OCCn1c(SCCOc2ccccc2F)nc2ccccc21	6.0%	i	-1
COc1ccc(NC(=O)CSc2nnc(Cc3cccn3C)n2-c2ccc(OC)cc2)cc1	-3.7%	i	-1.1
COc1ccc(Cc2nnc(NC(=O)c3c(-c4ccccc4)noc3C)s2)cc1OC	8.2%	i	2.1
COc1ccc(C(=O)n2cnnc2N)cc1	-1.1%	i	.
CC(C)(C)C(=O)COC(=O)CNC(=O)c1ccc(Oc2ccccc2)cc1	-3.3%	i	.
Cc1nnc2n(CCc3ccccc3)c(=O)c3c4c(sc3n12)CCCC4	4.1%	i	-1.7
COc1ccccc1N(CC(=O)NCCSC(C)(C)C)S(C)(=O)=O	3.0%	i	-0.21
COc1ccc(NC(=O)C2CC(=O)OC2(C)C)cc1 (centres undefined)	-4.1%	i	0.36
CSc1cccc(NC(=O)CN(C)S(=O)(=O)c2ccccc2)c1	-5.1%	i	0.2
O=C(COC(=O)C1CCCO1)Nc1cccc(C(F)(F)F)c1 (centres undefined)	-2.8%	i	0.85
CC(C)C1O/C(=N/C(=O)Nc2ccc(Cl)c(Cl)c2)NC1=O (centres undefined)	2.2%	i	0.51
CC(C)(C)NC(=O)CN(C(=O)C1(C)CC(=O)N=C2C=CC=CN21)C1CCCC1 (centres undefined)	-0.3%	i	-0.22
O=C(CN1C(=O)C2C3C=CC(C3)C2C1=O)NCc1ccccc1 (centres undefined)	-7.1%	i	.
CC(=O)NCCc1ccc(S(=O)(=O)N(C)C2CCS(=O)(=O)C2)cc1 (centres undefined)	-1.3%	i	1.9
COc1ccc2occ(NC(C)=O)c2c1	-2.8%	i	2.5

Rewritten bar-delimited: entries from further up
SMILES | Hsc70 ATP site | MT1-MMP promoter | WNV protease inh
CCc1ccccc1-n1c(SCC(=O)Nc2ccc3c(c2)OCCO3)nc2[nH]ncc2c1=O | 6.9% | i | -0.01
CNS(=O)(=O)c1cc(C(=O)NCc2ccco2)ccc1Cl | -0.2% | i | .
CC1CCN(S(=O)(=O)c2ccc(Cl)cc2)CC1 | -0.6% | i | 1.1
COc1cccc(-c2nnc3n2N=C(c2cc(OC)ccc2OC)CS3)c1 | -2.1% | i | .
OCCn1c(SCCOc2ccccc2F)nc2ccccc21 | 6.0% | i | -1
COc1ccc(NC(=O)CSc2nnc(Cc3cccn3C)n2-c2ccc(OC)cc2)cc1 | -3.7% | i | -1.1

Outcome played no part in choosing rows. About 0.87% of those tested had a hit in this group.
